GALR2 agonist – agonists of human galanin receptor 2 (GALR2); GALR2-expressing cells, agonist activation read-out; O43603; activation, %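 (tested at 5 µM)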; 0.48% of 140,000 active;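 active means above mean plus 3 SD of all compounds, about 5% in these data, not always enough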;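 further: 0% = vehicle buffer wells and 100% = reference agonist at full effect; tested in CHO reporter cells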
PKD1 kinase inh – blocks activity of human protein kinase D1. PKD1 kinase fluorescence polarization assay. inhibition, %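 (about 10 µM by stock and volumes)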. 0.056% of 200,000 active;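 active means inhibition of 50% or more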;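 further: controls were vehicle for no effect and a reference inhibitor for full effect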
Target sequence (Q15139 whole entry, looked up): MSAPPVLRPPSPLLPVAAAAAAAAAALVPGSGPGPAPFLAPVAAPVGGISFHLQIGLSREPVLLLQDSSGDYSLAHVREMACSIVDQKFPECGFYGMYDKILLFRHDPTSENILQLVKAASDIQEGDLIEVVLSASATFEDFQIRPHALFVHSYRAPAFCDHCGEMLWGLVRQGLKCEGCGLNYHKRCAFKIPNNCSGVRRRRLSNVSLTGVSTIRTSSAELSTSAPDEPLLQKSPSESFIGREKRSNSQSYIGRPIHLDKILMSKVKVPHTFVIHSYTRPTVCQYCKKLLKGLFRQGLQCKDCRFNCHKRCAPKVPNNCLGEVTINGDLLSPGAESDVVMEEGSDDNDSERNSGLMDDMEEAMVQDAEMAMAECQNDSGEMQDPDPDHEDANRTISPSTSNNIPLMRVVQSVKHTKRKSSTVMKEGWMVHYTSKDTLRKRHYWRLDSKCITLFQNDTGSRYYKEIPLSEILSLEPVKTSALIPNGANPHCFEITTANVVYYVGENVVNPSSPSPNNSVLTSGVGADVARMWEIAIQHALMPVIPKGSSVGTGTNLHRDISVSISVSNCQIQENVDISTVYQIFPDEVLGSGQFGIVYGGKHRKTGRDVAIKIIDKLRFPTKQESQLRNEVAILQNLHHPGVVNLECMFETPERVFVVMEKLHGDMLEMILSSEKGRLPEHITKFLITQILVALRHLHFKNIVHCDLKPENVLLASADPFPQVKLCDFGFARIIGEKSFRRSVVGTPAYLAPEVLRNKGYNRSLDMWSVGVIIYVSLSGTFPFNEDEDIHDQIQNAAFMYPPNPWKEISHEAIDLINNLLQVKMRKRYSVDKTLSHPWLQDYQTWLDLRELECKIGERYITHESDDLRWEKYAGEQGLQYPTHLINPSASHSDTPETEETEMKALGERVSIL
Insulin prom inh – TRM-6 insulin promoter activity inhibition; TRM-6 cells (human fetal islet line), insulin promoter-eGFP reporter, imaging; reporter expression induced with tamoxifen; inhibition, % at 2 µM; 0.9% of 130,000 active;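 active means inhibition above the mean plus 3 SD, with well images judged a real hit on visual review, cut at about 60% in these data, passing the limit was not always enough; inconclusive means inhibition over the cutoff but images rejected on review; inactive means inhibition not above the cutoff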
HSV replic up – HSV replication enhancement. HSV replication augmentation in cells, fold increase. maximum fold increase. 0.005% of 220,000 active;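 active means peak rise of 1.5-fold or more in the series; inconclusive means self-fluorescent or not available for retest; tested in PC3 cells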;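 further: first round at 10 µM; read as green reporter fluorescence; hits show the peak of a series up to 25 µM; 1 = signal of infected wells without compound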
RGS16-Gao – RGS16-Galphao interaction regulator (human) | O15492+P09471 | bead-based flow cytometry RGS16-Galphao binding, fluorescence; actives lie on both sides | binding response (% of control), % at 10 µM | 0.38% of 220,000 active | AID 1441;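 active means below 25% or above 175%, edge rows of some plates excepted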;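 further: Galphao activated by GDP with aluminum fluoride before binding; 100% = wells without compound and 0% = beads without RGS; some results beyond the cut were filed as inactive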
Insulin prom inh cell count – recorded beside Insulin prom inh, whose call it bears; normalized cell count, %; measured here: cell count, toxicity; reference of the scale not given here;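 cells exposed to compound for 48 h; stained nuclei by imaging scaled within each plate; lower means fewer cells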
HSV replic up primary fold – recorded beside HSV replic up, whose call it bears; fold increase; compound at 10 µM; measured here: primary screen fold increase 10 uM; tested in PC3 cells;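 GFP signal in the first replicate; 1 = infected wells without compound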
* hit, by the source's call; i = inactive; ? = inconclusive; nt = not tested or not shown.

SMILES	GALR2 agonist	PKD1 kinase inh	Insulin prom inh	Insulin prom inh cell count	HSV replic up	HSV replic up primary fold	RGS16-Gao
Cc1cccc(N2CCN(C(=O)/C=C/c3cccs3)CC2)c1C	0.3	-3	-15	123	nt	nt	108
CC(C)(C)n1nc2c(c1NC(=O)Cc1cccs1)CSC2	-1.6	2	nt	nt	i	0.98	98
Cc1ccc(S(=O)(=O)CCC(=O)Nc2cccc(C)c2)cc1	1.1	-9	-35	149	i	1	98
O=S(=O)(c1ccc(F)cc1)N1CC=C(c2ccccc2)CC1	nt	nt	nt	nt	i	0.9	101
c1ccc2[nH]c(NN=C3CCCCCC3)nc2c1	nt	-2	nt	nt	i	0.89	98
CCC(C)NC(=O)CSc1nnc(-c2c[nH]c3ccccc23)o1 (stereo not drawn)	nt	-2	nt	nt	i	0.84	101
CCOC(=O)CN(C(=O)COc1ccc2c(C)cc(=O)oc2c1)c1ccc(OCC)cc1	nt	-3	nt	nt	i	0.94	102
CCCSC1=C(C#N)C(c2ccccc2C)CC(=O)N1 (stereo not drawn)	-1.6	-7	64	93	i	0.87	97
OCCC1CN(C2CCSCC2)CCN1C1CCCC1 (stereo not drawn)	nt	-3	nt	nt	i	1.1	112
CC(C)c1ccc(NC(=O)COC(=O)CSc2nnc(N)s2)cc1	0.0	8	22	92	i	1.3	63
COc1cc(OC)nc(Oc2ccccc2C(=O)Oc2ccc(F)cc2Cl)n1	-3.4	3	-16	112	i	0.83	101
O=[N+]([O-])c1ccc2c(c1)OCCOCCOCCOCCOCCOCCO2	-1.1	7	-83	108	i	0.94	108
O=C(CN1C(=O)C2C3CCC(C3)C2C1=O)Oc1ccc2ccccc2c1 (stereo not drawn)	-1.4	-5	nt	nt	i	0.88	100
Cc1ccccc1CN1CCCNC1=O	-2.1	2	nt	nt	i	0.84	126
CC12CCC(C(=O)NNc3ccccc3)(OC1=O)C2(C)C (stereo not drawn)	nt	-1	nt	nt	i	1	103
Cc1nc2ccccn2c1-c1ccnc(SCc2ccc(Cl)cc2)n1	nt	nt	nt	nt	i	1	103
COC(=O)c1ccc(NC(=S)NC2c3ccccc3CC2O)cc1 (stereo not drawn)	nt	-4	nt	nt	i	1	102
Cc1ccc(NC(=O)CNc2ccc(OC(C)C)cc2)cc1	-0.9	-2	-14	103	i	0.95	96
CCN(CC)CCN(Cc1cc2cc3c(cc2[nH]c1=O)OCCO3)C(=S)NCC1CCCO1 (stereo not drawn)	nt	-1	nt	nt	i	0.82	105
Cc1cc(NC(=O)CCCN2C(=O)c3cccnc3C2=O)ccc1Br	nt	-2	nt	nt	i	1.1	99
CCCn1c(=O)c(C(=O)N/N=C/c2ccccc2F)c(O)c2ccccc21	nt	-3	-24	98	i	0.93	112
COc1cc(CNC2CCCC2)cc(OC)c1	-0.3	-3	nt	nt	i	1.2	100
COc1ccc(NC2c3ccccc3C(=O)N2Cc2ccc3c(c2)OCO3)cc1 (stereo not drawn)	nt	nt	nt	nt	i	1.2	91
CC(=O)Nc1ccc(S(=O)(=O)N2C(=O)c3cccc4cccc2c34)cc1	nt	nt	nt	nt	i	0.88	109
COc1cc(NC(=O)c2ccccc2Cl)c(OC)cc1NC(=O)CN1CCOCC1	-1.2	-10	nt	nt	i	1	112
O=C(Nc1ccc2oc(-c3ccccc3)nc2c1)c1ccco1	1.0	9	-13	99	i	0.97	106
CC(=O)Nc1ccc(NC(=O)CCCCCN2C(=O)c3ccccc3C2=O)cc1	-1.4	-6	-14	175	i	0.89	101
Cc1ccc(Sc2ccncc2S(N)(=O)=O)cc1	-1.3	-8	-42	97	i	0.98	104
COc1ccc(-c2ccc(=O)n(CC(=O)NCc3ccco3)n2)cc1	-0.8	5	39	55	i	0.93	93
COc1ccc2c(c1)c(=O)oc1cc(OCC(=O)N3CCCC(C)C3)ccc12 (stereo not drawn)	-2.7	-10	1	153	i	0.96	106
Nc1cccnc1Sc1cc(Cl)c(Cl)cc1Cl	-1.6	3	20	110	nt	nt	101
CCOc1ccc(OCCOc2ncnc3ccccc23)cc1	-2.4	-10	40	78	i	0.99	102
COc1ccc(O[C@H]2C=C[C@@H](c3ccccc3)O[C@@H]2CO/N=C/C[C@@H]2C=C[C@H](OC(C)=O)[C@@H](COC(C)=O)O2)cc1	-1.9	1	10	105	nt	nt	119
CCC(C)NC(=O)CSc1c2c(nc3ccccc13)CCCC2 (stereo not drawn)	nt	0	nt	nt	i	0.93	98
COc1ccc(NC(=O)CC(CC(=O)O)c2cc(OC)c(OC)c(OC)c2)cc1 (stereo not drawn)	nt	nt	nt	nt	i	1.1	100
Cc1ccccc1C(=O)N1CCC(C(=O)Nc2ccc3c(c2)OCO3)CC1	-0.5	-6	7	118	i	1.1	103
CC(=O)Nc1ccc(N2C(=O)c3ccc(C(=O)Nc4nnc(SCc5ccc(F)cc5)s4)cc3C2=O)cc1	nt	-3	nt	nt	i	1.1	107
S=c1[nH]nc(-c2ccc(Cl)cc2)n1-c1cccnc1	nt	nt	nt	nt	i	0.9	90
COc1ccc(S(=O)(=O)NCc2csc(C)n2)cc1	-1.4	-19	43	67	i	0.96	96
Cn1nnnc1NCc1c(F)cccc1Cl	-2.6	-10	3	91	i	0.87	83
O=C(N/N=C/c1cn(-c2ccccc2)nc1-c1ccc(F)cc1)c1ccc2c(c1)OCO2	-2.4	-21	-10	88	i	1	107
Cc1ccc2cc3c(NC(=O)C4CCCO4)nn(CC(C)C)c3nc2c1 (stereo not drawn)	2.7	-4	14	102	i	0.99	108
O=C(COC(=O)c1ccccc1Br)Nc1cc(S(=O)(=O)N2CCOCC2)ccc1N1CCCC1	nt	0	nt	nt	i	0.88	103
COCCCn1c(=O)/c(=C\c2ccccc2OC(F)F)s/c1=C(/C#N)C(=O)NC(C)C	0.6	-7	nt	nt	?	nt	76
C=CSc1sc(Cl)c(N2CCOCC2)c1[N+](=O)[O-]	nt	3	17	100	i	0.81	98
COc1cccc(-c2noc(CCC(=O)NCC3CCCO3)n2)c1 (stereo not drawn)	nt	0	nt	nt	i	0.99	101
CCCC(=O)Nc1cc(Cl)ccc1C	nt	4	nt	nt	i	0.98	99
O=C(NC1CCCCC1)C(=S)NC1CCCCC1	nt	2	nt	nt	i	1.1	100
CCOC(=O)C(=O)Nc1ccccc1C(=O)OCC	nt	3	48	91	i	0.96	95
COCCOC(=O)c1cc(C(=O)c2cc(Cl)ccc2O)coc1=N	nt	-12	-37	76	i	1.2	95
O=C(O)CNC(=O)C12CC3CC(CC(Cl)(C3)C1)C2	nt	-1	-21	86	i	1	55
Nc1ccc(O)cc1C(=O)OCC(=O)c1ccc(C2CCCCC2)cc1	6.3*	-9	-21	119	i	0.84	101
CC1=C(C(=O)NCc2ccccc2)C(c2ccc(C)o2)n2ncnc2N1 (stereo not drawn)	-1.3	5	nt	nt	i	0.95	81
O=S(=O)(NC1=NCCC1)c1cccc(NS(=O)(=O)c2ccc(OC(F)(F)F)cc2)c1	-0.1	-18	39	59	i	1.1	123
CCc1nnc(NC(=O)c2sc3nc4c(cc3c2N)CCCCCC4)s1	2.4	7	-35	140	i	0.86	100
CCN(CC)c1ccc(NC(=O)c2ccco2)cc1	-1.4	-6	nt	nt	i	0.78	135
Cc1cccc(C)c1Nc1nnc(SCC(=O)c2ccc(Br)s2)s1	-1.5	-2	nt	nt	i	1.2	98
CCC1(C)Cc2c(sc3nc(NN)n(C)c(=O)c23)CO1 (stereo not drawn)	-0.7	3	0	121	i	0.88	103
Cc1ccc(/C=N/Nc2ccc3ccccc3n2)o1	nt	-4	nt	nt	i	1.1	98
C#CCOCCOCCOCCNc1nc(N2CCN(C(=O)[C@H](CCCCN)n3cc(C(N)CO)nn3)CC2)nc(N2CCN(C(=O)[C@H](CCC(=O)O)n3cc(C(N)CC(C)C)nn3)CC2)n1 (stereo partly drawn)	nt	nt	nt	nt	i	0.69	96

2 entries from above, in CSV form.
smiles,GALR2 agonist,PKD1 kinase inh,Insulin prom inh,Insulin prom inh cell count,HSV replic up,HSV replic up primary fold,RGS16-Gao
Cc1cccc(C)c1Nc1nnc(SCC(=O)c2ccc(Br)s2)s1,-1.5,-2,nt,nt,i,1.2,98
CCC1(C)Cc2c(sc3nc(NN)n(C)c(=O)c23)CO1 (stereo not drawn),-0.7,3,0,121,i,0.88,103

(listing goes on)
SMILES	GALR2 agonist	PKD1 kinase inh	Insulin prom inh	Insulin prom inh cell count	HSV replic up	HSV replic up primary fold	RGS16-Gao
O=C(Nc1ccc(F)cc1)c1ccc(CSc2ccc(Cl)cc2)o1	nt	nt	nt	nt	i	0.92	94
C=CCc1ccccc1OCC(=O)OCCNC(=O)c1cccnc1	-1.1	9	-62	97	i	1.1	114
COc1ccc(Nc2ncnc3c2cnn3-c2cccc(C)c2)cc1OC	nt	nt	nt	nt	i	0.7	107
Cc1ccccc1OCc1nnc(SCc2cc(=O)[nH]c3ccccc23)n1-c1ccccc1	-1.2	-11	-11	57	i	0.94	82
CCCn1c(SCC(=O)NCC2CCCO2)nc2c1c(=O)n(C)c(=O)n2C (stereo not drawn)	-2.0	0	nt	nt	i	0.88	102
NC(=O)C1CCN(c2nc(C3CC3)nc3c2nnn3Cc2ccccc2Cl)CC1	-2.6	13	nt	nt	i	0.79	104
CC1CN(C(=O)c2scc3c2OCCO3)CC(C)O1 (stereo not drawn)	-2.5	1	-76	83	i	1	101
O=C(Cc1ccc(Cl)cc1)Nc1ccncc1	nt	4	nt	nt	i	0.97	104
CC(=O)Nc1ccc(Nc2cc(C)nc3c(-c4ccccc4)cnn23)cc1	0.3	-2	75*	201*	i	0.78	99
C=CCn1c(SCc2nc3ccccc3c(=O)[nH]2)nc2scc(C3CC3)c2c1=O	nt	nt	nt	nt	i	0.91	100
COCc1cc(CN2CCN(C)CC2)c(O)c2ncccc12	-2.2	-1	18	106	i	0.96	88
Cc1ccccc1-c1ncc(CN2CCC(CO)(CCCc3ccccc3)CC2)cn1	nt	-1	nt	nt	i	0.91	100

In another format: four of the compounds above.
smiles | GALR2 agonist | PKD1 kinase inh | Insulin prom inh | Insulin prom inh cell count | HSV replic up | HSV replic up primary fold | RGS16-Gao
O=[N+]([O-])c1ccc2c(c1)OCCOCCOCCOCCOCCOCCO2 | -1.1 | 7 | -83 | 108 | i | 0.94 | 108
O=S(=O)(c1ccc(F)cc1)N1CC=C(c2ccccc2)CC1 | nt | nt | nt | nt | i | 0.9 | 101
COc1cc(OC)nc(Oc2ccccc2C(=O)Oc2ccc(F)cc2Cl)n1 | -3.4 | 3 | -16 | 112 | i | 0.83 | 101
O=C(N/N=C/c1cn(-c2ccccc2)nc1-c1ccc(F)cc1)c1ccc2c(c1)OCO2 | -2.4 | -21 | -10 | 88 | i | 1 | 107

Other entries follow:
SMILES	GALR2 agonist	PKD1 kinase inh	Insulin prom inh	Insulin prom inh cell count	HSV replic up	HSV replic up primary fold	RGS16-Gao
Nc1nc2ccccc2n1C(=O)c1ccccc1	nt	1	nt	nt	i	0.84	73
CCN1CC2=C(OC(N)=C(C#N)C2c2cccs2)/C(=C/c2cccs2)C1 (stereo not drawn)	0.2	-1	20	131	i	0.92	102
O=C(O)CCNC(=O)/C(=C\C=C\c1ccccc1)NC(=O)c1ccccc1	nt	nt	nt	nt	i	0.96	107
CCOCC(=O)Nc1ncc(S(=O)(=O)c2ccc([N+](=O)[O-])cc2)s1	nt	-4	nt	nt	i	1	99
Cc1ccc(-c2csc3ncnc(-n4cnc5ccccc54)c23)cc1	0.3	1	nt	nt	i	0.81	102
O=c1[nH]c2ccccc2nc1N1CCOCC1	-1.3	-9	18	101	i	0.99	99
CC(C)(C)C(=O)NC(=S)Nc1sc2c(c1C#N)CCCCC2	-0.2	9	nt	nt	i	0.98	107
COc1cccc2c(=O)c3c(cnn3C)n(C)c12	6.2	12	22	142	nt	nt	95
O=C(c1cc2sccc2n1Cc1ccccc1)N1CCc2ccccc21	-0.5	4	0	84	i	0.92	102
Cc1ccc(C2(c3noc(CN(C)CCO)n3)CCCC2)cc1	nt	6	nt	nt	i	1	98
Cc1cc(C)n2nc(SCC(=O)N(C)Cc3ccccc3)nc2n1	-0.7	-4	-13	128	i	0.88	-187
COC(=O)c1ccc(NC(=O)C23CC4CC(C2)CC(n2cncn2)(C4)C3)cc1	-3.0	-5	25	191	i	1.2	101
COc1ccc(CCn2c(N3CCN(Cc4ccccc4)CC3)nc3c2c(=O)[nH]c(=O)n3C)cc1	1.2	6	14	115	i	1.1	105
Cc1ccccc1NC(=S)NCc1ccccc1	-0.4	-7	39	94	i	1	103
Cc1cc(C)c2c(c1)/C(=N\N=c1\sc3ccccc3n1C)C(=O)N2	nt	nt	nt	nt	i	0.81	103
CN1/C(=C\C=N\NC(=O)c2ccc(O)cc2)C(C)(C)c2ccccc21	-0.1	4	-34	75	i	0.88	108
COc1ccc(-c2nc(C#N)c(NCCc3ccccc3)o2)cc1	-2.2	-5	-16	116	i	0.7	99

Bioassay records as filed in PubChem.
